# Source: PubChem (several laboratories)
# Bead autofluor = compound fluorescence in toxin protease inhibitor counterscreen | AID 624483 | 360,000 tested, 3.1% active | compound autofluorescence counterscreen, microsphere flow cytometry; active compounds read high | fluorescence intensity (test concentration not listed);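 active means at least 3 SD above the mean of all compounds, about 16000 in these data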;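 further: 100 nL of 1 mM stock went into each well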
# BJeLR viability = kills HRASV12-expressing BJeLR cells; AID 1554; 300,000 tested, 0.17% active; BJeLR (HRASV12) viability, CellTiter-Glo ATP luminescence, 48 h; reference of the scale not given here; inhibition, % (test concentration not listed);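 active means replicate mean above 50%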;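 further: 50 nL library stock added to about 25 µL; numbers are from one replicate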
# PrP UTR inh = suppresses PrP 5' UTR mRNA reporter expression; cell-based PrP 5' UTR mRNA reporter, plate reader; inhibition, % (test concentration not listed); 340,000 tested, 0.35% active;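 active means every replicate at 50% or more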;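 further: 0 = median of the neutral control wells; tested in H4 reporter cells; numbers are from one replicate; inactives centre near -14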
# * = called active by the depositor; . = no result given. This is a subset; rates above refer to the full screens.
> CCCOc1ccc2nc(NC(=O)OC)[nH]c2c1
  Bead autofluor: .
  BJeLR viability: 26
  PrP UTR inh: .

> CCN(CC)CC1CCCCN1CC(=O)N1c2ccccc2C(=O)Nc2cccnc21 (stereo unspecified)
  Bead autofluor: .
  BJeLR viability: 7
  PrP UTR inh: .

> CN(C)CCCSc1ccccc1NC(=O)/C=C/c1ccccc1
  Bead autofluor: .
  BJeLR viability: 0
  PrP UTR inh: .

> COc1cc(C=O)ccc1O
  Bead autofluor: 2962
  BJeLR viability: .
  PrP UTR inh: .

> O=C(O)Cc1sc(-c2ccccc2)nc1-c1ccc(Cl)cc1
  Bead autofluor: 2925
  BJeLR viability: .
  PrP UTR inh: .

> O=[N+]([O-])c1cncn1CCN1CCOCC1
  Bead autofluor: 3727
  BJeLR viability: .
  PrP UTR inh: -18

> CC(=O)OCC(=O)[C@@]1(O)CC[C@H]2[C@@H]3CCC4=CC(=O)C=C[C@]4(C)[C@@]3(F)[C@@H](O)C[C@@]21C
  Bead autofluor: 5282
  BJeLR viability: .
  PrP UTR inh: -31

> CC[C@]12CCCN3CCc4c(n(c5ccccc45)[C@](O)(C(=O)OC)C1)[C@@H]32
  Bead autofluor: 4388
  BJeLR viability: .
  PrP UTR inh: 6

> CCCCCCCCCCCCCCC[C@@H](O)[C@@H](N)CO
  Bead autofluor: 5462
  BJeLR viability: .
  PrP UTR inh: -10

> Cn1ccc2cc3c(cc21)CCN3C(=O)Nc1cccnc1
  Bead autofluor: 3103
  BJeLR viability: .
  PrP UTR inh: -65

> COc1cc(N)c(Cl)cc1C(=O)N[C@H]1CCN(CCCOc2ccc(F)cc2)C[C@H]1OC
  Bead autofluor: 5950
  BJeLR viability: .
  PrP UTR inh: -1

> CN(C)C/C=C(\c1ccc(Br)cc1)c1cccnc1
  Bead autofluor: 6257
  BJeLR viability: .
  PrP UTR inh: 0

> C[C@@H]1C[C@H]2[C@@H]3CCC4=CC(=O)C=C[C@]4(C)[C@@]3(Cl)[C@@H](O)C[C@]2(C)[C@@]1(OC(=O)c1ccco1)C(=O)CCl
  Bead autofluor: 6008
  BJeLR viability: .
  PrP UTR inh: 9

> CCc1ccccc1OC[C@@H](O)CN[C@H]1CCCc2ccccc21
  Bead autofluor: 4207
  BJeLR viability: .
  PrP UTR inh: 1

# By substructure: the entries above with four or more nitrogen atoms.
> CCN(CC)CC1CCCCN1CC(=O)N1c2ccccc2C(=O)Nc2cccnc21 (stereo unspecified)
  Bead autofluor: .
  BJeLR viability: 7
  PrP UTR inh: .

> O=[N+]([O-])c1cncn1CCN1CCOCC1
  Bead autofluor: 3727
  BJeLR viability: .
  PrP UTR inh: -18

> Cn1ccc2cc3c(cc21)CCN3C(=O)Nc1cccnc1
  Bead autofluor: 3103
  BJeLR viability: .
  PrP UTR inh: -65

# Only Bead autofluor, for 2 of the compounds above:
compound,Bead autofluor
O=[N+]([O-])c1cncn1CCN1CCOCC1,3727
COc1cc(N)c(Cl)cc1C(=O)N[C@H]1CCN(CCCOc2ccc(F)cc2)C[C@H]1OC,5950
